# Source: PubChem (several laboratories)
# FGF22 binding: shifts melting point of recombinant human FGF22. Q9HCT0. recombinant FGF22 thermal shift, SYPRO orange fluorescence; percent of sucrose octasulfate shift, DMSO zero. calls only at 9.99 µM. hit rate 1.5% among 340,000;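 active = melting point raised past a set limit in the mean and every replicate; inconclusive = no clear call; three in four hits are not shown here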
# HNF4A DNA FP: change in binding of human HNF4 alpha to DNA; hit rate 0.3% among 360,000; HNF4a-FITC DNA binding, fluorescence polarization, 1 h; activity change, % at 10 µM; in the data active = activity change above about 30%, passing the limit was not always enough;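 note: controls were the assay level and a saturating level of protein; the project sought stronger binding though the title names inhibitors; some compounds called inactive have numbers as strong as hits; positive values seem to mean higher polarization but the record does not say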
# Target sequence (P41235 whole entry, looked up): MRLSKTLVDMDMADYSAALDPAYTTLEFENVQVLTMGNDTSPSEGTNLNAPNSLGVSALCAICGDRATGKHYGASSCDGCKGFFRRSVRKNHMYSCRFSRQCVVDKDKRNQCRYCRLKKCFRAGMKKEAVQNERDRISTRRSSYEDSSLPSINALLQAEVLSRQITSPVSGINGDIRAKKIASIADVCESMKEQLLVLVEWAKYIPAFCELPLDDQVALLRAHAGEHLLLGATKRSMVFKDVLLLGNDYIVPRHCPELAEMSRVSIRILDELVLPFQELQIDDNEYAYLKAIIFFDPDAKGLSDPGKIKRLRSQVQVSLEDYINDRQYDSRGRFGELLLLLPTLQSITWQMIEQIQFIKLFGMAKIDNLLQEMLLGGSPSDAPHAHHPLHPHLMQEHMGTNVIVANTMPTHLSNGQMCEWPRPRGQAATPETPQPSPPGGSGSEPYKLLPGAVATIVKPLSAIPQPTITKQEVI
# Vif A3G: HIV-1 Vif–A3G interaction blockers – biochemical, TR-FRET, GST-Vif 1-94, biotin-A3G peptide, dose response retest, primary screen (AID 1117319); hit rate 0.57% among 260,000; one-dose inhibition, %; IC50 in µM for titrated hits; TR-FRET GST-Vif / biotin-A3G peptide binding; higher % means a stronger effect; test concentration not given here; strong numbers were not always called active;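 active = above the screen mean plus three standard deviations and confirmed in dose response; inconclusive = results disagree or hit not tested in dose response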;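 note: Vif residues 1-94 fused to GST binding biotinylated APOBEC3G peptide 110-148; 0% = full assay without inhibitor and 100% = GST in place of GST-Vif; retest series ran down from 100 µM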
# ALR inh: human ALR oxidase inhibition via reduced H2O2; AID 485317; P55789; purified ALR, DTT oxidation, H2O2 HRP-luminol luminescence; hit rate 3.8% among 290,000; inhibition, % (no concentration beside the values);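 active = mean and each replicate at 75% or more; inconclusive = only one of the two met; inactive = neither met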;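 note: stock transfer was 7.5 nL into about 7.5 µL; 0% = neutral wells and 100% = wells with inactivated enzyme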
# Ecoli rRNA inh: inhibitors of bacterial rRNA selective over humanized ribosomes; AID 720706; hit rate 1.6% among 350,000; GFP signal change (wild-type ribosome), % (no concentration beside the values); E. coli WT GFP vs humanized-ribosome RFP mutants, fluorescence, 24 h; stronger effect = lower value; DMSO median 0, no signal -100;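 active = significant combined selectivity score with lowered wild-type GFP, culture density cut under 30%, mutant RFP and density less affected; inactive = any of these conditions unmet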; note: one replicate is shown; some compounds called inactive have numbers as strong as hits
# E coli growth: blocks Escherichia coli growth; OD600 absorbance (no concentration beside the values); hit rate 0.21% among 330,000; OD600, 23 h; stronger effect = lower value;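 active = OD600 absorbance below the run mean of sample wells minus 3.6 SD, in any replicate, cut at about 0.56 in these data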;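 note: stock transfer was 300 nL into about 60 µL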
# MLL AF4-AF9 inh: MLL-AF4/AF9 protein interaction inhibition; P42568; AID 651704; inhibition, % at 10 µM; hit rate 0.47% among 350,000; AlphaScreen, biotin-AF4 peptide binding to FLAG-AF9;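 active = every replicate reaching a set inhibition limit, whatever the replicate mean, cut at about 25% in these data; inconclusive = mean inhibition reaches that limit but some replicates miss it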;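 note: 0% = plate neutral control median and 100% = total signal loss; the record names both 10 and 1 µM as test concentration; the first replicate is given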
# Target sequence (P42568 whole entry, looked up): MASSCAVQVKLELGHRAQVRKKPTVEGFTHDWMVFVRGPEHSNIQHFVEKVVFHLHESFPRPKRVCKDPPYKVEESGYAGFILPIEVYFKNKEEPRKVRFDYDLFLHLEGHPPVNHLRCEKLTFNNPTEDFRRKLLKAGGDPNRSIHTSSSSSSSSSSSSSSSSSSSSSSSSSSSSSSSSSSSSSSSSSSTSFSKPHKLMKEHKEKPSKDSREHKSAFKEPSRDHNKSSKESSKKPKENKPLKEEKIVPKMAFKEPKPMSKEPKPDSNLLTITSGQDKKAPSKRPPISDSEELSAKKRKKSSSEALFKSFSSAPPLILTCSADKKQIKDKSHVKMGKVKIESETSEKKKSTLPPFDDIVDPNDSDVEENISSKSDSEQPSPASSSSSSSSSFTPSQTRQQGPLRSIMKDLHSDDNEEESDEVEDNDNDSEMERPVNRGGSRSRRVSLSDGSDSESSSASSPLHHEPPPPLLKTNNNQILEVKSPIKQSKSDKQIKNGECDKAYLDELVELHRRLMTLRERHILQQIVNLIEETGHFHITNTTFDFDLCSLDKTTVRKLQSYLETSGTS
# Ecoli rRNA inh OD600: recorded beside Ecoli rRNA inh, whose call it bears; OD600 change, %; measured here: OD600 growth;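 optical density of the mix in the first replicate; 0 = DMSO median and -100 = no signal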
# Ecoli rRNA inh RFP: second read-out of Ecoli rRNA inh, no call of its own (marks repeat the call); RFP signal change, %; measured here: RFP humanized mutant strains;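 first replicate; 0 = DMSO median and -100 = no signal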
# * = called active by the depositor; i = inactive; u = inconclusive; x = not tested or not shown; & = joins results of further samples. The list is partial; the hit share may differ from the screen's.
SMILES,FGF22 binding,HNF4A DNA FP,Vif A3G,ALR inh,Ecoli rRNA inh,Ecoli rRNA inh OD600,Ecoli rRNA inh RFP,E coli growth,MLL AF4-AF9 inh
COc1cccc(N(C(=O)CNC(=O)c2ccco2)C(C(=O)NC2CCCC2)c2cccnc2)c1 (stereo not drawn),i,-2.2,x,-8,2,-2,-1.2,0.67,0.1
Cc1ccc(-n2c(CNc3cccc(Cl)c3)n[nH]c2=S)cc1,i,-0.2,-3%,u,2,-2,-2.6,0.65,-4.5
CC(OC(=O)c1ccc(O)cc1)C(=O)Nc1cc(C(F)(F)F)ccc1Cl (stereo not drawn),i,-3.9,-8%,x,-25,-24,-3.8,0.72,2.1
O=[N+]([O-])c1cccc(C(=Nc2cccc(Cl)c2)NO)c1,x,-0.1,-1%,41,x,x,x,0.7,x
CC(C)C[C@@H]1CC2=C(C(=O)OC(C)(C)O2)[C@H](c2ccc(Cl)cc2)O1,i,-0.7,x,x,-17,-16,-8.4,x,-3.7
CCOC(=O)c1c(S(=O)(=O)N2CCCCC2C)c(C)n(C)c1C (stereo not drawn),i,0.5,x,-10,4,10,-0.3,0.71,4.9
COc1ccc(COC(=O)c2ccc(Br)c(S(=O)(=O)N3CCOCC3)c2)cc1F,i,1.7,-4%,0,-8,-7,0.8,0.68,1.0
C[C@@H]1CCCCO[C@H](CN(C)Cc2ccc(C(F)(F)F)cc2)[C@@H](C)CN([C@H](C)CO)C(=O)c2cc(NC(=O)Nc3ccc(F)cc3)ccc2O1,i,x,x,x,0,2,1.1,x,-0.4
CC1CCCCN1C(=O)Cn1c(=O)oc2cc(S(=O)(=O)N3CCCC3)ccc21 (stereo not drawn),i,-1.6,x,x,5,-1,0.0,0.7,-5.4
O=C(O)C(Cc1ccccc1)n1c(=S)[nH]c2ccccc2c1=O (stereo not drawn),i,-5.4,6%,27,-7,2,-0.8,0.67,-6.1
O=C(c1cccc(NS(=O)(=O)c2ccccc2)c1)N1CCCCC1,i,0.3,-3%,-6,-7,-4,2.5,0.67,3.8
Clc1ccc(-n2nnnc2CN2CCOCC2)cc1,x,0.0,5%,-11,x,x,x,0.7,x
COc1ccc(NC(=O)/C(C#N)=C\c2ccc(-c3cc(C(=O)O)ccc3C)o2)cc1,i,-3.5,x,0,-19,-21,-1.2,0.67,-4.4
CCCCc1ccc(S(=O)(=O)NCCc2ccncc2)cc1,x,-0.2,-2%,-10,x,x,x,0.68,x
O=C(Nc1ccccc1)OCc1cc(-c2ccc(Cl)cc2)on1,x,-4.7,-1%,-5,x,x,x,0.77,x
Cc1ccc(S(=O)(=O)CCC(=O)Nc2nnc(CC(C)C)s2)cc1,i,-2.9,0%,x,4,9,1.1,0.66,-33
Cc1ccc(SC(C)C(=O)Nc2cccc(N(C)S(C)(=O)=O)c2)cc1 (stereo not drawn),x,2.5,21%,-3,x,x,x,0.72,x
Cc1ccc(S(=O)(=O)N(C)C[C@H]2OCCCC[C@@H](C)Oc3ccc(NC(=O)CCCCCC(=O)Nc4ccccc4N)cc3C(=O)N([C@H](C)CO)C[C@@H]2C)cc1,i,x,x,x,-1,9,-0.1,x,-0.2
Cc1cccc2c1cnn2C(=O)Nc1ccc(Br)cc1F,i,0.6,5%,x,-9,2,-25,0.67,-2.4
COC(=O)c1ccc(NC(=O)c2c(Br)cnn2C)cc1,i,-3.7,3%,0,2,4,1.9,0.7,-5.2

# Single records, as listed above.
# O=C(O)C(Cc1ccccc1)n1c(=S)[nH]c2ccccc2c1=O (stereo not drawn) reads FGF22 binding = i; HNF4A DNA FP = -5.4; Vif A3G = 6%; ALR inh = 27; Ecoli rRNA inh = -7; Ecoli rRNA inh OD600 = 2; Ecoli rRNA inh RFP = -0.8; E coli growth = 0.67; MLL AF4-AF9 inh = -6.1
# Cc1ccc(S(=O)(=O)CCC(=O)Nc2nnc(CC(C)C)s2)cc1 reads FGF22 binding = i; HNF4A DNA FP = -2.9; Vif A3G = 0%; ALR inh = x; Ecoli rRNA inh = 4; Ecoli rRNA inh OD600 = 9; Ecoli rRNA inh RFP = 1.1; E coli growth = 0.66; MLL AF4-AF9 inh = -33

# The list continues:
SMILES,FGF22 binding,HNF4A DNA FP,Vif A3G,ALR inh,Ecoli rRNA inh,Ecoli rRNA inh OD600,Ecoli rRNA inh RFP,E coli growth,MLL AF4-AF9 inh
Cc1ccc(Nc2cc(C)nc3c(C)ccc([N+](=O)[O-])c23)cc1,i,4.8,x,1,-36,-60,14,0.65,33*
CCOc1ccc(OCC(=O)OCC(=O)N2CCN(S(=O)(=O)c3ccc(C)cc3C)CC2)cc1,i,2.0,x,x,12,12,1.1,0.72,-4.6
CC1Cc2ccccc2N1S(=O)(=O)c1cccc(C(=O)N2CC(=O)Nc3ccccc32)c1 (stereo not drawn),i,-1.3,-3%,x,-37*,-27*,2.2*,0.72,12
CC(NC(=O)c1ccccc1NC(=O)CN1CCN(c2ccccc2O)CC1)c1ccccc1 (stereo not drawn),i,-0.4,x,u,-4,-1,0.3,0.7,1.6
Cc1ccc(CSCC(=O)NCCCN2CCOCC2)cc1,i,-5.5,u,22,13,10,5.0,0.67,-3.9
CCn1c(-c2ccc(C)cc2)n[nH]c1=S,x,-3.0,1%,10,x,x,x,0.73,x
CCO/C=C1\N=C(c2ccc(F)cc2)OC1=O,i,-0.1,x,x,4,8,-5.2,0.63,-50
CCCC(=O)Nc1ccc2c(c1)C(=O)N(C)[C@H]1CC[C@@H](CC(=O)Nc3cn(C)nc3C)O[C@@H]1CO2,i,x,x,x,3,4,0.2,x,-0.8
CC(C)(C)NC(=O)NC(=O)COC(=O)CNC(=O)c1cc(Cl)cc([N+](=O)[O-])c1,i,0.9,x,-18,9,9,5.0,0.65,0.1
COc1ccc(NC(=O)CN(C)C(=O)CSc2nc3ccccc3s2)cc1,i,43*,-1%,98*,-14,-12,2.8,0.65,-1.0
CCc1noc(C)c1C(=O)Nc1nnc(C(CC)CC)s1,i,-0.4,-11%,-1,-2,4,3.2,0.6,-0.7
O=[N+]([O-])c1ccc2nc[nH]c2c1,i,5.1,3%,x,x,x,x,0.64,-0.6
COCC(=O)Nc1ccc2c(c1)C(=O)N(C)C[C@@H](OC)[C@H](C)CN(C(=O)c1cccnc1)[C@@H](C)CO2,i,x,x,x,1,0,-0.9,x,0.2
COc1cccc(/C=N/NC(=O)c2ccncc2)c1OC(=O)c1ccc(Br)cc1,x,-17,3%,-6,x,x,x,x,x
CC(C)(C)c1ccc(OCC(=O)NNC(=S)NC(=O)c2ccccc2[N+](=O)[O-])c(Br)c1,i,-1.8,x,92*,-7,-16,5.3,0.7,2.9
Cc1c(S(=O)(=O)c2ccccn2)c(N)n(Cc2cccc(Cl)c2)c1C,i,32,6%,x,11,5,8.3,0.67,x
COc1ccc(S(=O)(=O)N(C)C[C@@H]2Oc3cc(Br)ccc3S(=O)(=O)N([C@H](C)CO)C[C@@H]2C)cc1,i,-3.6,-11%,x,-4,-15,-1.8,x,2.7&0.5
Cc1onc(-c2ccccc2)c1C(=O)OCC(=O)Nc1ccc(Cl)cc1,i,-0.4,x,2,-21,-63,14,0.65,1.5
CCOc1cc(NC(=O)c2cccs2)c(OCC)cc1NC(=O)c1ccccn1,i,-7.2,x,-27,2,4,-2.4,0.76,-2.0
O=C1CSC(c2ccncc2)N1Cc1ccc(F)cc1 (stereo not drawn),i,-6.4,x,-12,7,-11,-0.6,0.71,0.0

# A draw from above in order of length of the SMILES, smallest number first:
SMILES,FGF22 binding,HNF4A DNA FP,Vif A3G,ALR inh,Ecoli rRNA inh,Ecoli rRNA inh OD600,Ecoli rRNA inh RFP,E coli growth,MLL AF4-AF9 inh
O=[N+]([O-])c1ccc2nc[nH]c2c1,i,5.1,3%,x,x,x,x,0.64,-0.6
O=C1CSC(c2ccncc2)N1Cc1ccc(F)cc1 (stereo not drawn),i,-6.4,x,-12,7,-11,-0.6,0.71,0.0
Cc1onc(-c2ccccc2)c1C(=O)OCC(=O)Nc1ccc(Cl)cc1,i,-0.4,x,2,-21,-63,14,0.65,1.5
COc1cccc(/C=N/NC(=O)c2ccncc2)c1OC(=O)c1ccc(Br)cc1,x,-17,3%,-6,x,x,x,x,x
CC(C)(C)c1ccc(OCC(=O)NNC(=S)NC(=O)c2ccccc2[N+](=O)[O-])c(Br)c1,i,-1.8,x,92*,-7,-16,5.3,0.7,2.9

# The list goes on.
SMILES,FGF22 binding,HNF4A DNA FP,Vif A3G,ALR inh,Ecoli rRNA inh,Ecoli rRNA inh OD600,Ecoli rRNA inh RFP,E coli growth,MLL AF4-AF9 inh
CC(=O)Nc1ccc2oc(C)nc2c1,x,0.1,6%,-5,11,3,0.0,0.71,-9.4
O=C(CNC(=O)c1ccc(C(F)(F)F)cc1)NC1CC1,i,3.1,-2%,0,9,8,1.7,0.7,-6.1
COc1ccc([N+](=O)[O-])cc1NC(=O)CCN1CCN(c2ccccc2)CC1,i,0.7,22%,-1,11,8,1.4,0.73,-0.5
COc1nc(-c2cnccn2)sc1C,x,-2.1,x,-12,18,13,2.9,0.68,-1.9
Cc1ccc(S(=O)(=O)Nc2ccc3c(c2)CC(=O)N([C@@H](C)CO)C[C@@H](C)[C@H](CN(C)Cc2ccc(Oc4ccccc4)cc2)O3)cc1,i,x,x,x,3,2,-0.1,x,0.7
COc1ccc(C(=O)NCC2(N3CCCCC3)CCCCC2)cc1S(=O)(=O)N(C)C,i,-0.2,x,-26,5,7,-0.1,0.67,-0.5
O=C(CCCc1nc(-c2ccccc2)no1)NC1CCCC1,i,-0.3,x,-1,0,1,0.9,0.7,0.9
Cc1nnc(NC(=O)CCSCCC(=O)Nc2nnc(C)s2)s1,i,-8.0,10%,-14,19,16,2.4,0.67,-2.8
CCCCOCC1CN(CCCC)S(=O)(=O)c2c(cccc2Sc2ccc(SC)cc2)O1 (stereo not drawn),i,x,x,x,0,4,-2.2,x,1.3
CC(C)(C)OC(=O)N(Cc1ccccc1)Cc1ccc(OCc2cccc(NC(=O)c3ccccc3)c2)cc1,i,-0.5,x,x,5,5,-0.8,x,2.4
Cc1cccc(-n2ccnc2SCC(=O)Nc2nccs2)c1,x,-0.6,5%,-6,x,x,x,0.77,x
C=CC[C@@H](CC(=O)N[C@@H](CO)Cc1ccccc1)C(=O)N[C@@H](COC(=O)[C@@H](CC=C)Cc1ccc(F)cc1)Cc1ccccc1,i,7.1,x,x,17,11,-2.7,x,-1.9
O=C(c1ccccc1)N1CCc2ccccc21,x,-7.2,-4%,x,x,x,x,0.67,x
Cc1ccc(Oc2ccccc2NC(=O)C2=COCCO2)cc1,i,0.4,9%,x,-4,-23,-7.1,0.61,-13
Cc1noc(C)c1S(=O)(=O)Nc1ccc2c(c1)C(=O)N([C@H](C)CO)C[C@@H](C)[C@H](CN(C)S(=O)(=O)c1cccs1)O2,i,x,x,x,-3,-1,-1.2,x,-0.6
Cc1nnc(SCc2ccccc2CSc2nnc(C)s2)s1,i,1.9,x,-1,x,x,x,0.69,-0.5
COc1ccc(/C=N/NC(=O)c2ccccc2O)cc1COc1ccccn1,i,3.0,x,x,0,8,-0.2,x,8.4
CCN1CCN(CCNC(=O)c2ccc(CS(=O)c3ccc(Cl)cc3)o2)CC1 (stereo not drawn),i,-0.6,x,-6,5,7,-1.7,0.71,0.6
CC(C)(C)c1ccc(C(=O)N2CCC(NC(=O)c3ccccc3)CC2)cc1,i,0.9,x,-6,-2,-7,-1.5,0.7,-0.2
CC1Cc2ccccc2N1C(=O)CSc1nnc2n1C(C)(C)Cc1ccccc1-2 (stereo not drawn),x,-1.7,5%&11%,-2,x,x,x,0.69,x
CC(=O)Nc1cc(C(=O)NCc2ccco2)ccc1Sc1ccc(Cl)cc1,i,2.4,24%,-9,x,x,x,0.72,2.8
